# Source: PubChem BioAssay (several laboratories)
# eIF4H inh = inhibitors of RNA binding by human eIF4H; Q15056; eIF4H fluorescence polarization binding assay; inhibition, % at 35 µM; hit rate 0.94% among 290,000; AID 2012;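 active = 50% or more with normal probe brightness, or confirmed in later tests; about a fifth of its hits are not listed in these tables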;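 note: calls also rest on retests at 20 µM and on dose response follow-up; 0% = protein and probe with vehicle and 100% = probe without protein; strong numbers were not always called active; many hits fall short of the cut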
# PABP polyA inh = PABP-poly(A) binding inhibition | P11940 | PABP-poly(A) RNA binding, fluorescence polarization | inhibition, % at 35 µM | hit rate 1% among 290,000 | AID 2014;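 active = 50% or more with normal probe brightness, or confirmed in later tests; about a fifth of its hits are not listed in these tables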;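 note: calls also rest on retests at 20 µM and on dose response follow-up; controls were probe without protein and protein plus probe with vehicle; some compounds called inactive have numbers as strong as hits; many hits fall short of the cut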
# Target sequence (P11940 whole entry, looked up): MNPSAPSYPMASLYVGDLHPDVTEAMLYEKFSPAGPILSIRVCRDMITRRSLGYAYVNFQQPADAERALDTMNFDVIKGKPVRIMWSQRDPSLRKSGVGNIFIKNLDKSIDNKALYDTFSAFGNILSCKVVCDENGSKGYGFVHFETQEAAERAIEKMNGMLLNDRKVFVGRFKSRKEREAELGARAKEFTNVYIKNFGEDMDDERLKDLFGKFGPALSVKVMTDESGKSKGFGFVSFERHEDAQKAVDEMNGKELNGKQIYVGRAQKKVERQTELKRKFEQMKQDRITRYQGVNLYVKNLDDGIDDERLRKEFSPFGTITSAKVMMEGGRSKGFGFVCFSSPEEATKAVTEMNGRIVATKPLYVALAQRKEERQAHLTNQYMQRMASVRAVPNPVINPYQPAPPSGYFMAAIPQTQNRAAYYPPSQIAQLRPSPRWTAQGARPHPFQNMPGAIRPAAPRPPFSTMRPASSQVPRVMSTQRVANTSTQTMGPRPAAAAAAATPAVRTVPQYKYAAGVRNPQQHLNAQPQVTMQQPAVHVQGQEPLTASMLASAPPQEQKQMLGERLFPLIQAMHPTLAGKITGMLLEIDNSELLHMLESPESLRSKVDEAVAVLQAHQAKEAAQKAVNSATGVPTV
# Yeast UUG start = yeast start codon fidelity modulation. activity score, % at 18.7 µM. hit rate 0.13% among 350,000. S. cerevisiae UUG-firefly luciferase reporter, luminescence/redox ratio;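 active = replicate mean at a twofold rise or more, about +100% in these data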;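 note: firefly luciferase made from a UUG start codon reports start codon fidelity; reporter light over untreated wells divided by growth signal over untreated wells; some hits fall short of that in this replicate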
# HIV Env fusion = inhibitors of HIV Env-mediated cell fusion. hit rate 1.1% among 360,000. AID 651610. HeLa-JRFL Env/CEM21 cell fusion, luciferase. inhibition, % at 12.3 µM;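 active = mean replicate inhibition score of at least 50 and every replicate individually at or above 50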;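 note: 0% = plate neutral controls and 100% = maraviroc near 300 nM; one replicate is shown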
# Rce1 inh = inhibitors of yeast Ras-converting enzyme; yeast membranes, quenched prenylated peptide cleavage fluorescence; calls only; hit rate 0.27% among 290,000;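 active = fall in fluorescence gain of 50% or more versus controls, with final raw signal at or below 3038400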;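 note: plate controls were neutral control wells for no effect and wells lacking membranes for full effect; tested at 10 µM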
# Target sequence (Q03530 whole entry, looked up): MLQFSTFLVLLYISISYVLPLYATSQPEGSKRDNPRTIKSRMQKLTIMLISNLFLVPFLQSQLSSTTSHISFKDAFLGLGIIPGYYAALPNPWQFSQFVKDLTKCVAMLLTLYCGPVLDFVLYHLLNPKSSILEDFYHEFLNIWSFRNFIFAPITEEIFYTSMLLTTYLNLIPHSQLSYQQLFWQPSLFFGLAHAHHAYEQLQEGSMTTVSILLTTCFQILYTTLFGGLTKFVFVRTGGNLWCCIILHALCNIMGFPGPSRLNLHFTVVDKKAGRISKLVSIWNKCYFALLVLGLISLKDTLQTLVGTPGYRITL
# MT1-MMP act inh = inhibitors of human MT1-MMP activation | P50281 | HT1080 RFP-PRO-GFP cells, GFP/RFP ratio fluorescence, overnight; percent of plate control window, DMSO zero | GFP/RFP ratio change, % at 20 µM | hit rate 0.061% among 360,000;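 active = GFP/RFP ratio change of at least 30% with cell ATP level not reduced by more than half and red fluorescence within 50% of control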; note: strong numbers were not always called active
#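 system = RFP-PRO-GFP reporter HT1080 cells | dosing = 20 µM single dose, 1% DMSO | timing = overnight cell settling, then overnight compound exposure, 37 °C, 5% CO2 | read-out basis = GFP/RFP fluorescence ratio | controls = DMSO and RFP-L50D-GFP cell wells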
# CSC inhib = cancer stem cell inhibition. cancer stem cell-like cells viability, luminescence. inhibition, % at 7.5 µM. hit rate 1.1% among 300,000. AID 2717;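 active = mean at 75% or more and at least half the replicates too; tested in HMLE shEcad cells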;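 note: 0% = median of negative and 100% = median of positive control wells; the first replicate is given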
# MT1-MMP act inh RFP = recorded beside MT1-MMP act inh, whose call it bears; RFP signal change, %; measured here: RFP expression control read;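 0 = vehicle wells; hits needed this value within 50% of zero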
# Numbers without * were called inactive; i = inactive; / = no result given; & = joins results of further samples; [ ] = dose if it differs, or a comment.
SMILES,eIF4H inh,PABP polyA inh,Yeast UUG start,HIV Env fusion,Rce1 inh,MT1-MMP act inh,MT1-MMP act inh RFP,CSC inhib
CN=C1N(C)C[C@@H]2[C@@H]3C(=O)N(Cc4ccccc4)C(=O)[C@@H]3[C@](Cc3ccccc3)(C(=O)OC)N12,/,/,-6,-4,/,3,5,/
O=C1C=C(N(CCO)CCO)C2(CCCCC2)O1,11,0,-12,-8,i,-2,2,2
CCNc1nc(NC(C)C)nc(NS(=O)(=O)c2ccc(C)cc2)n1,-5,-2,-15,-13,i,0,1,-15
COC(=O)[C@]1(C)N[C@H](CN(C)C(=O)c2ccccc2)[C@@H]2C(=O)N(C)C(=O)[C@@H]21,/,/,-1,24,/,3,8,-13
O=C(CN(C(=O)c1csnn1)c1ccccc1Cl)NC1CCCCC1,-7,12,-5,17,i,1,1,/
COc1cc(C2C3=C(CCCC3=O)Nc3[nH]n(-c4ccccc4)c(=O)c32)ccc1O (centres undefined),-3,-1,-9,-6,/,-2,-2,-8
Cc1cc(C)c(S(C)(=O)=O)c(S(=O)(=O)c2ccc(Cl)cc2)n1,-3,3,/,/,i,-1,-2,-22
O=C(NC1CCOC1=O)c1ccccc1 (centres undefined),/,/,-11,1,/,-1,-2,/
COc1cccc(NC(=O)CN(C)C(=O)CCC(=O)c2cc(C)sc2C)c1,/,/,-12,-15,/,5,3,/
O=C(CSc1nnc(-c2ccccc2)n1-c1ccccc1)c1cccs1,-8,6,-16,-53,i,-5,-3,46
C=CCNC(=S)/N=c1/ccccn1CCC,38,-3,/,-13,i,5,1,-8
O=C(NNC1=NCCCCC1)Nc1ccc(Cl)cc1,-9,-3,/,-15,i,-1,-1,19
CC(C)(C)c1ccc(/C=C/C(=O)Nc2ncccn2)cc1,-38,0,/,/,i,-3,-8,-15
CC1CCc2sc3nc(N4CCN(CCO)CC4)n4ncnc4c3c2C1 (centres undefined),0,-8,-5,/,i,-5,-6,17
c1ccc(CCc2nc(-c3ccc(-n4cccc4)cc3)no2)cc1,-1,-8,-6,7,i,-2,-7,17
O=C(NC1CCCCC1)C(c1ccc2ncccc2c1)N(Cc1ccccc1)C(=O)c1cccs1 (centres undefined),-3,-1,31,16,i,-18,-16,8
Cc1ccsc1C(=O)N/N=C/c1ccc2c(c1)OCO2,6,-6,-21,-157,i,0,2,30
COc1cc(C)c(C)cc1S(=O)(=O)n1c(C)nc2ccccc21,-13,6,-6,-5,/,-2,1,-9
O=C(NCc1ccccn1)C(=O)NCC(c1ccco1)N1CCN(c2ccc(F)cc2)CC1 (centres undefined),-1,-8,/,-5,i,6,-6,-5
CCOc1ccc(-n2c(SC(C)C(=O)OC)nc3c(c2=O)SCC3)cc1 (centres undefined),/,/,-14,/,i,6,3,-4
Cc1ccc(SCC(=O)Nc2nncs2)cc1,/,/,-19,-7,i,2,3,7
CCc1nccn1S(=O)(=O)c1ccccc1[N+](=O)[O-],5,13,-15,3,i,3,6,-10
COc1cc(CNCc2ccc(C(=O)O)cc2)ccc1OCc1ccc(F)cc1,-1,-1,-11,-12,i,0,1,-4
Cc1cc(C)c2nc(N3CCC(C(=O)NCCCN4CCCC4=O)CC3)sc2c1,-10,-12,-9,5,i,2,-7,6
C=CCn1c(SCc2csc(-c3ccc(Cl)cc3)n2)nnc1-c1ccccc1OC,-6,-11,/,56*,i,0,-5,6
# Continued.
SMILES,eIF4H inh,PABP polyA inh,Yeast UUG start,HIV Env fusion,Rce1 inh,MT1-MMP act inh,MT1-MMP act inh RFP,CSC inhib
COC(=O)c1cc(C#N)c(NCc2ccccc2)nc1C,-3,9,/,/,i,0,0,-2
CCC(C)NC(=O)CSc1nnc(-c2cc(-c3cccs3)nc3ccccc23)o1 (centres undefined),-4,-1,-44,/,i,1,-7,-6
COc1cccc2c1OCC/C2=N\NC(=O)COc1ccccc1C,3,1,/,/,i,-7,-2,-13
COc1cccc(CC(=O)OCC(=O)NCc2ccc3c(c2)OCO3)c1,/,/,-4,4,/,2,4,-4
CC(=O)c1ccc(N(C(=O)c2ccco2)C(C(=O)NC2CCCC2)c2cccs2)cc1 (centres undefined),5,2,-3,-8,i,3,4,8
COC(=O)/C(C#N)=C/c1c[nH]c2ccccc12,-5,-6,/,-26,i,-2,-6,-12
CCCCNC(=O)c1onc(CSc2ccccc2F)c1C(=O)O,1,3,-6,-33,i,2,0,2
O=c1c2[nH]cnc2n(-c2cccc(F)c2)c(=O)n1Cc1ccccc1,1,-5,-17,-2,i,3,4,-15
CC(C)CCn1c2ccccc2c2cc(CC(N)=O)ccc21,6,8,/,33,i,-1,-10,11
CCCCCNC(=O)C1CC=CCC1C(=O)O (centres undefined),2,-3,-33,/,i,-11,2,-7
Cc1cc(C(=O)CN2CCC(C)CC2)c(C)n1-c1ccc(F)cc1,-1,-8,/,-5,i,-4,3,18
O=C1C(=O)N(c2nccs2)C(c2ccccc2)/C1=C(\O)c1ccc2c(c1)OCCO2 (centres undefined),6,13,-19,/,i,-38,-14,42
COc1ccc(CCN(C)C(=O)c2oc3ccccc3c2C)cc1OC,/,/,-6,8,i,0,-1,-9
O=C(Nc1ccc2c(c1)oc1ccccc12)N1CCOCC1,-4,-3,-15,/,i,3,3,-3
Cc1cccc(C)c1NC(=O)Cc1cccs1,-9,3,-3,2,i,1,0,-12
Cc1cccc(-c2nc(-c3ccncc3)no2)c1,-4,-5,-21,i,i,0,2,14
Nc1ccc(C(=O)c2ccccc2C(=O)O)cc1Cl,-7,10,2,/,i,9,4,-10
CCC(=O)Nc1ccc(Cl)c(NC(=O)c2ccc(Br)o2)c1,-3,4,7,/,/,7,-3,-19
O=C(CN1C(=O)C2CC=C(Cl)CC2C1=O)N1CCOCC1 (centres undefined),-3,17,-18,-189,i,-3,-3,15
CCOC(=O)/C=C1\NC(C)(C)Cc2cc(OC)c(O)cc21,2,3,-1,3,i,6,-4,24
Cc1ccc(-n2c(SCC(=O)NCc3ccco3)nc3nc4c(cc3c2=O)COC(C)(C)C4)cc1,0,4,7,/,i,-4,-5,/
Cc1ccc(N=C2SCCCN2C(=O)C2=COCCO2)cc1Cl,/,/,-7,5,i,-3,-1,-5
COc1ccc(Br)cc1/C=N/n1c(C)nc2ccccc2c1=O,2,-2,-9,16,i,4,2,/
Cc1ccccc1OCc1nc(-c2ccc(NC(=O)c3cccs3)cc2)no1,0,-5,/,/,i,2,-6,4
O=C(O)c1cccc(S(=O)(=O)N(Cc2ccccc2)c2ccc(Cl)cc2)c1,13,5,-8,3,i,-3,4,3
# (listing goes on)
SMILES,eIF4H inh,PABP polyA inh,Yeast UUG start,HIV Env fusion,Rce1 inh,MT1-MMP act inh,MT1-MMP act inh RFP,CSC inhib
COC(=O)c1ccc(COc2ccc(C)c(C)c2)o1,2,2,-7,-59,i,4,5,/
Nc1nn2c(C(F)(F)F)cc(=O)[nH]c2c1N=Nc1cccc(F)c1,2,5,/,/,i,7,9,0
O=C(Cc1ccccc1)Nc1ncccc1Cl,/,/,-25,0,i,2,2,8
COc1cccc(C(=O)NC2CCNCC2)c1,5,13,9,0,i,1,3,-4
CC1(C(=O)Nc2ccccc2F)CCN1C(=O)Cc1ccc(-c2ccccc2)cc1 (centres undefined),/,/,-14,38,/,3,-24,/
O=c1nc(Nc2ccccc2)oc2ccccc12,-5,-7,-11,-22,i,0,-1,-6
C[C@@H]1CN([C@H](C)CO)S(=O)(=O)c2ccc(Br)cc2O[C@H]1CN(C)C(=O)Nc1ccc(F)cc1,/,/,6&10,-25,/,1,6,/
CCN(CC)CCC(=O)N1c2ccccc2Sc2ccc(NC(=O)OC)cc21,0,-10,-7,10,i,1,0,4
O=C(OCCCc1cc2ccccc2c(=O)o1)c1ccco1,/,/,-3,9,/,2,-3,11
Cc1nc(-c2ccccn2)nc(SCC(=O)N2CCOCC2)c1Cl,-12,-12,-24,-4,i,4,3,-1
CCn1c(SCC(=O)N2CCc3ccccc32)nc2c(c1=O)SC(C)C2 (centres undefined),-5,4,-19,/,i,1,-2,0
Cc1cccc(S(=O)(=O)N(C)C[C@@H]2OCc3cnnn3CCCC(=O)N([C@@H](C)CO)C[C@@H]2C)c1,/,/,-11&-7&11,1[16.7 µM],/,-2,5,/
COc1ccc(/C=C(/NC(=O)c2ccco2)C(=O)Nc2cccc(C(=O)O)c2)cc1,4,8,-7,18,/,-1,4,-13
Cc1ccn2cc(CNS(=O)(=O)c3cccs3)nc2c1,18,12,/,5,i,-3,3,-3
COC(=O)CC1(C(=O)OC)Oc2ccccc2C(=O)N1c1ccc(F)cc1F (centres undefined),/,/,/,3,i,2,0,-9
COc1ccc(NC(=O)CCCn2nc(C)c3c(C)n(-c4ccccc4)nc3c2=O)cc1,1,-16,-14,-9,i,-2,0,-2
COc1ccc(NC(=O)CSc2nnnn2-c2ccc(OC)cc2)cc1,1,4,-21,-59,i,-9,-15,-7
CCN1C(=O)c2cccc3c(S(=O)(=O)Nc4c(C)n(C)n(-c5ccccc5)c4=O)ccc1c23,-14,3,17,/,i,1,4,-12

# Ordered by formula weight (falling): some entries from above.
SMILES,eIF4H inh,PABP polyA inh,Yeast UUG start,HIV Env fusion,Rce1 inh,MT1-MMP act inh,MT1-MMP act inh RFP,CSC inhib
C[C@@H]1CN([C@H](C)CO)S(=O)(=O)c2ccc(Br)cc2O[C@H]1CN(C)C(=O)Nc1ccc(F)cc1,/,/,6&10,-25,/,1,6,/
Cc1cccc(S(=O)(=O)N(C)C[C@@H]2OCc3cnnn3CCCC(=O)N([C@@H](C)CO)C[C@@H]2C)c1,/,/,-11&-7&11,1[16.7 µM],/,-2,5,/
Cc1ccc(-n2c(SCC(=O)NCc3ccco3)nc3nc4c(cc3c2=O)COC(C)(C)C4)cc1,0,4,7,/,i,-4,-5,/
CCN1C(=O)c2cccc3c(S(=O)(=O)Nc4c(C)n(C)n(-c5ccccc5)c4=O)ccc1c23,-14,3,17,/,i,1,4,-12
COc1ccc(NC(=O)CCCn2nc(C)c3c(C)n(-c4ccccc4)nc3c2=O)cc1,1,-16,-14,-9,i,-2,0,-2
COc1ccc(/C=C(/NC(=O)c2ccco2)C(=O)Nc2cccc(C(=O)O)c2)cc1,4,8,-7,18,/,-1,4,-13
O=C(O)c1cccc(S(=O)(=O)N(Cc2ccccc2)c2ccc(Cl)cc2)c1,13,5,-8,3,i,-3,4,3
COC(=O)CC1(C(=O)OC)Oc2ccccc2C(=O)N1c1ccc(F)cc1F (centres undefined),/,/,/,3,i,2,0,-9
CCn1c(SCC(=O)N2CCc3ccccc32)nc2c(c1=O)SC(C)C2 (centres undefined),-5,4,-19,/,i,1,-2,0
COc1ccc(Br)cc1/C=N/n1c(C)nc2ccccc2c1=O,2,-2,-9,16,i,4,2,/
COc1ccc(NC(=O)CSc2nnnn2-c2ccc(OC)cc2)cc1,1,4,-21,-59,i,-9,-15,-7
Cc1nc(-c2ccccn2)nc(SCC(=O)N2CCOCC2)c1Cl,-12,-12,-24,-4,i,4,3,-1
Cc1ccc(N=C2SCCCN2C(=O)C2=COCCO2)cc1Cl,/,/,-7,5,i,-3,-1,-5
Nc1nn2c(C(F)(F)F)cc(=O)[nH]c2c1N=Nc1cccc(F)c1,2,5,/,/,i,7,9,0
Cc1ccn2cc(CNS(=O)(=O)c3cccs3)nc2c1,18,12,/,5,i,-3,3,-3
O=C(OCCCc1cc2ccccc2c(=O)o1)c1ccco1,/,/,-3,9,/,2,-3,11
COC(=O)c1ccc(COc2ccc(C)c(C)c2)o1,2,2,-7,-59,i,4,5,/
O=C(Cc1ccccc1)Nc1ncccc1Cl,/,/,-25,0,i,2,2,8
O=c1nc(Nc2ccccc2)oc2ccccc12,-5,-7,-11,-22,i,0,-1,-6
COc1cccc(C(=O)NC2CCNCC2)c1,5,13,9,0,i,1,3,-4

# Only part of the results is shown; rates above refer to the full screens.
